gsp ag: gsp mutant agonism; Potency, µM (titrated, usually from 76.9 µM), for the others: top-dose activation (cAMP increase), most hits filed as activators; 340,000 compounds, 0.13% hits; gsp mutant cells, cAMP HTRF, 30 min; control for the full effect not named in the record; active = well fitted activation curve with a large enough effect; inconclusive = small, poorly fitted or top-dose-only effect, or another doubt; inactive = no such curve, though single readings can be large or run the other way; cell line not stated here;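 note: phosphodiesterase inhibitor Ro 20-1724 added with compounds to block cAMP breakdown; potency is the fitted concentration of half-maximal effect; nearly all actives have a fitted effect of over 60% in size; about a fifth of the inactives were tested at one dose only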
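Cells stably selected in G418 were plated at 2000/well, grown 16-24 hr, then given compounds in DMSO with the PDE inhibitor […] (300 uM solution added) for 30 min at 37C; cAMP was read by HTRF.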
ClpP mod: qHTS Assay for Activators of ClpP; ATP-dependent Clp protease proteolytic subunit (Bacillus subtilis (strain 168)), P80244; purified B. subtilis ClpP, FRET peptide cleavage, 20 min; Potency, µM (series often up to 57.5 µM), for the others: at the top dose activity change, negative = active; 340,000 compounds, 1.9% hits; active = well fitted falling curve with a large enough effect; inconclusive = small, poorly fitted or top-dose-only effect; inactive = no such curve, though single readings can be large or run the other way; note: potency is the fitted concentration of half-maximal effect; the source files actives as falling curves though it sought activators and does not explain the sign; nearly all actives have a fitted effect of over 65% in size; many hits overshoot -100%
Target sequence (P80244 whole entry, looked up): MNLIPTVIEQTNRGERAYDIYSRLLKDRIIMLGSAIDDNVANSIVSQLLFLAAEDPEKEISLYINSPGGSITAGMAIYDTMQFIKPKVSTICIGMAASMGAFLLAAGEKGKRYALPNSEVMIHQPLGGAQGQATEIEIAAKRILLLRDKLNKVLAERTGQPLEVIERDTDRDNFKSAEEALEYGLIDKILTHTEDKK
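ClpP 10 microg/mL final, pH 8 Tris/KCl buffer with BSA, glycerol, Tween-20; compound pinned in; FRET-FV substrate; RT 20 min; Ex320/Em430; ΔFRET vs ADEP 5.8 microM, DMSO, no enzyme.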
TRPV1 PAM: enhances activation of the human vanilloid receptor TRPV1; TRPV1-expressing cells, Fluo-8 calcium influx, capsaicin EC20 potentiation; host cell line not named in the record; control for the full effect not named in the record; Q8NER1; potentiation, % at 8.33 µM; 320,000 compounds, 0.02% hits; active means potentiation above 80%; inconclusive means 30% to 80%; inactive means below 30%; note: 0% is about no effect
Target sequence (Q8NER1 whole entry, looked up): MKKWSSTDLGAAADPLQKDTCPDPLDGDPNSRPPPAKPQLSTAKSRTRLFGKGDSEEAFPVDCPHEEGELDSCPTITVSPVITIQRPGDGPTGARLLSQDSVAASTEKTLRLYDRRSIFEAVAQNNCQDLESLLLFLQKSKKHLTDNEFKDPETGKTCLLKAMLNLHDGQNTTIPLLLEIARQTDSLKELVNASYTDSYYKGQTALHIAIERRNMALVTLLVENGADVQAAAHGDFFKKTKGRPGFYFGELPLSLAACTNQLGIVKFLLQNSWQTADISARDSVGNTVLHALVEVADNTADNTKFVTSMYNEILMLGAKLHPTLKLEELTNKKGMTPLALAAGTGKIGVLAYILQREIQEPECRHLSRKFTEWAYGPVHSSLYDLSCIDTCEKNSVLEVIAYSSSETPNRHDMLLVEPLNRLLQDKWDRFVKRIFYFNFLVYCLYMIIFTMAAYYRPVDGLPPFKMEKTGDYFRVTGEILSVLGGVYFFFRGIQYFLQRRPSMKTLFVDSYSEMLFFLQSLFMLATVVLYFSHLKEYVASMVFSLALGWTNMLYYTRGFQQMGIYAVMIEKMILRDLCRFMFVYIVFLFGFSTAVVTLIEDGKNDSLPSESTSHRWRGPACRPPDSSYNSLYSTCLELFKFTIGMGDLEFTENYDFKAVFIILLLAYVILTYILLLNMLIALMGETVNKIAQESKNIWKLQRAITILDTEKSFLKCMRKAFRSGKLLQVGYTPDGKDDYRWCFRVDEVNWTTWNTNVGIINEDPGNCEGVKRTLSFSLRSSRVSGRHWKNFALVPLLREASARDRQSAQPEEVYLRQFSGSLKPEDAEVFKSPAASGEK
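Fluo-8 calcium influx in TRPV1-expressing cells, kinetic read (ex 480/em 520 nm). Compound added and read 3 min for agonist activity, followed by capsaicin at EC20 final and 2 min further read for enhancement.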
CtBP-E1A blk: inhibitors of CtBP/E1A interaction. AlphaScreen GST-E1A/His-CtBP binding, 1536-well; stronger effect = lower value; control for the full effect not named in the record. activity change, % (concentration not given with the values). 340,000 compounds, 0.49% hits; in the data active means activity change below about -65%; inconclusive means about -30% to -65%; inactive means above about -30%; note: % is set by controls: 0 for no effect and ±100 for the full control effect
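In 5 uL wells, 23 nL compound meets equimolar GST-E1A and His-CtBP (5X stock 125 nM each) for 2 h, 37 °C. Beads (5X, 50 ug/mL) then 1 h, 37 °C, dark.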
Sfp inh: blocks B. subtilis Sfp PPTase activity. Q9F4F7. Biochemical Sfp PPTase activity, qHTS. Potency, µM, inactives show max response, negative = inhibition, hits mostly inhibitors. 310,000 compounds, 3.5% hits; active = well fitted inhibition curve with a large enough effect; inconclusive = small, poorly fitted or top-dose-only effect, or another doubt; inactive = no such curve, though single readings can be large or run the other way;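 note: the enzyme is Sfp with the accession as filed and its product quenches rhodamine fluorescence; potency is the fitted concentration of half-maximal effect; 0% = enzyme reaction without inhibitor and -100% = no enzyme wells; top concentration of the series not given in the record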
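Buffer: 50 mM Hepes-Na pH 7.6, 10 mM MgCl2, 0.01% Nonidet P-40, 0.01% BSA. Enzyme 15 nM, pre-exposed to compound 15 min; substrates then added and fluorescence change tracked over 30 min.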
Menin MLL FP FL: inhibitors of human menin-MLL interaction, wild-type MLL peptide; Fluorescence polarization, fluorescein-MLL peptide displacement from menin; AID 1766; 290,000 tested, under 10 active; FP activity change, % at 61.4 µM; inconclusive = falling polarisation curve, or a change in total fluorescence; inactive = total fluorescence flat and polarisation flat or rising; no compound was filed as active; the % refers to the polarisation; negative = inhibition;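 note: % of control where 0% means no effect; inhibitors lower the polarisation; unlabelled MLL peptide was the positive control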
gsp antag: gsp mutant antagonism. gsp-mutant cells, cAMP HTRF, 30 min; control for the full effect not named in the record. Potency, µM (doses to about 76.9 µM), for the others: at the top dose activity change, negative = inhibition, most hits filed as inhibitors. 340,000 compounds, 0.4% hits. AID 624288; active = falling curve of any shape with a large fitted effect; inconclusive = falling curve, mostly with a smaller effect; inactive = flat or rising curve; cell line not stated here;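 note: intracellular cAMP measured with PDE inhibitor Ro 20-1724 present during compound exposure; potency is the fitted concentration of half-maximal effect; % is set by controls: 0 for no effect and ±100 for the full control effect; nearly all actives have a fitted effect of over 65% in size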
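Measurement of cellular cAMP by homogeneous time-resolved fluorescence following a 30 min compound exposure at 37C. The PDE inhibitor […] was present throughout; the assay buffer was DPBS with 0.05% BSA and 0.005% Tween 20.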
The depositor's hits bear a star; u = inconclusive; x = not tested or not shown; [ ] = remark or other dose.

entry	Molecule	gsp ag	ClpP mod	TRPV1 PAM	CtBP-E1A blk	Sfp inh	Menin MLL FP FL	gsp antag
1	CCCNC(=O)C(Cc1ccccc1F)NC(=O)c1ccc(C#N)cc1 (stereo not given)	x	1.8%	-20	0	x	x	7%
2	CCN(CC(=O)NC(=O)NCc1ccccc1)CC(=O)Nc1cc(Cl)ccc1C	1%	0.0%	11	3	x	x	-15%
3	COc1cc(/C=C/C(=O)c2ccc(O)cc2)ccc1OCC#N	-40%[inhibitor]	-1.7%	-26	1	-20%	-1.4	-8%
4	CC1C(=O)N2CCCc3cc(NS(=O)(=O)c4ccccc4)cc1c32 (stereo not given)	-19%	1.5%	-17	5	x	x	1%
5	Cc1ccc(NC(=O)N2CCC(O)(c3cccnc3)CC2)cc1	u	-0.2%	-7	1	6%	1.8	0%
6	O=C(NCc1ccccc1)[C@@H]1CSC2c3ccccc3C(=O)N21 (stereo not given in full)	1%	0.2%	-11	4	8%	1.7	3%
7	Cc1cc(NC(=O)CN2C(=O)N(C)C3(CCCCC3)C2=O)ccc1Br	-5%	0.0%	2	1	x	x	-3%
8	CSc1ccc(C2(O)Cc3cccc[n+]3C2c2ccccc2)cc1 (stereo not given)	-49%[15.4 µM]	1.3%	3	6	11%	1.9	3%
9	Cc1cc(C(=O)NNC(=O)C(CCC(N)=O)NS(=O)(=O)c2ccc(Cl)cc2)c(C)o1 (stereo not given)	u	x	x	-1	x	x	4%
10	COc1ccc(CC(=O)N(C)Cc2ccc(Cl)cc2)cc1S(=O)(=O)N1CCOCC1	11%	-11%	5	-7	x	x	5%
11	CCN(CC)c1ccc(NC(=O)/C=C\c2ccccc2Cl)cc1	13%	-1.2%	10	-8	-4%	2.2	8%
12	COC(=O)c1ccccc1NC(=O)c1cnn2c(C)cc(C)nc12	-3%	-9.0%	-9	0	-5%	0.1	-12%
13	COc1ccc(-c2nnc(SCC(=O)O)n2C)cc1OC	u	-0.3%	2	18	8%	-4.8	18%
14	COc1ccc(C2CC3(CC(C)(C)NC(=O)N3)Oc3cc(O)ccc32)cc1 (stereo not given)	-14%	-1.5%	-4	-4	-3%	1.8	-8%
15	Cc1nc(-c2ccc(C(F)(F)F)cc2)sc1C(=O)NN	u	x	-25	10	15%	6.3	-1%
16	Cc1ccc(NC2SC(=O)N(Cc3cccc(C(=O)O)c3)C2=O)cc1 (stereo not given)	2%	-2.8%	7	-5	-18%	1.9	-14%
17	Cc1ccc(-c2nnn3c2nc(Cl)c2ccccc23)cc1	u	x	u	13	-9%	0.1	-7%
18	CC1CN(Cc2nc3c(c(=O)n(C)c(=O)n3C)n2Cc2cccc(Cl)c2)CC(C)O1 (stereo not given)	-43%[inhibitor]	-1.4%	11	1	15%	2.3	-4%
19	CCOc1cc(OCC)nc(S(C)(=O)=O)n1	-10%	2.7%	8	0	11%	1.6	6%
20	CCOc1cc(C(=O)Nc2ncccn2)cc(OCC)c1OCC	-21%	-0.9%	-14	8	4%	-1.7	-10%
21	O=C(CSc1nnc(-c2ccc(OC(F)F)cc2)o1)NCc1cccs1	0%	0.5%	6	0	12%	0.1	-8%
22	COc1ccc(-n2nc(C(=O)NCC(=O)NCc3ccco3)c3ccccc3c2=O)cc1Cl	-1%	-6.6%	3	-2	6%	2.7	-6%
23	CCCC1C2C(=O)N(c3ccccc3)C(=O)C2ON1c1ccccc1 (stereo not given)	-10%	0.0%	5	-3	18%	0.6	-6%
24	COC(=O)c1ccc(NC(=O)CSc2nnc(COc3ccc4c(c3)CCCC4)o2)cc1	-50%[inhibitor]	-1.2%	5	6	8%	3.5	2%
25	COc1ccc(S(=O)(=O)N2CCOC23CCN(S(=O)(=O)c2ccc(Cl)cc2)CC3)cc1	-41%[inhibitor]	1.6%	18	6	x	x	1%
26	CCCC(C)C1c2c(c(C)c(C)oc2=O)Oc2c(C)c(C)oc(=O)c21 (stereo not given)	25%	-1.1%	x	1	x	x	-25%
27	Cc1n[nH]c2ccc([N+](=O)[O-])cc2c1=O	-23%	1.5%	x	4	x	x	x
28	COc1ccc(Nc2nc(N)c([N+](=O)[O-])c(NC3CCCCC3)n2)cc1	6%[15.4 µM]	x	14	u	-4%	1.0	-6%
29	NC(=O)c1ccc(OCC2CCCO2)cc1 (stereo not given)	4%[15.4 µM]	x	2	1	14%	1.0	4%
30	COc1ccc(C2=CSC3=NCCN23)cc1Br	-5%[15.4 µM]	x	x	-8	x	x	2%
31	COc1ccc(CC(=O)OCC(=O)N2CCCc3ccccc32)cc1OC	2%[15.4 µM]	x	-11	2	x	x	6%
32	Cc1cc(C)n2nc(C(=O)OCCOc3ccc(F)cc3)nc2n1	-3%	1.0%	3	2	-6%	-1.5	2%
33	CCCn1cc(S(=O)(=O)CC(=O)NC2CCCCC2)c2ccccc21	u	0.2%	17	7	13%	1.7	-9%
34	CCOC(=O)c1cnc(SC)nc1NCCOC	36%[15.4 µM]	x	-4	4	6%	1.1	-24%
35	O=C(CCn1c(=S)oc2ccccc21)NCCC1=CCCCC1	11%	1.4%	-6	-5	4%	-2.3	-4%
36	Cc1ccc(S(=O)(=O)C(NC(=O)c2ccccc2)=C(Cl)Cl)cc1	-9%	-2.2%	x	-22	x	x	0%
37	O=C(Nc1ccccn1)C12CC3CC(CC(C3)C1)C2	-25%	-1.6%	u	4	8%	0.5	-15%
38	CS(=O)(=O)N(CC(=O)Nc1ccccc1C(=O)N1CCOCC1)c1ccc(F)c(Cl)c1	-2%[15.4 µM]	-1.1%	0	-1	14%	x	7%
39	CCc1ccc(NC(=O)CSc2nc3[nH]ncc3c(=O)[nH]2)cc1	-11%[15.4 µM]	x	1	2	10%	-2.5	5%
40	Cc1ccc(-c2nnc(SCC(=O)n3c4c(c5ccccc53)CCCC4)o2)cc1	x	x	1	x	-3%	6.4	x
41	CCOC(=O)Nc1ccc2c(CN3C(=O)NC(CC)(CC)C3=O)cc(=O)oc2c1	u	37%	2	-3	14%	4.6	-15%
42	CCCNc1c(NS(=O)(=O)c2ccc(C)c(C)c2)c(=O)oc2ccccc12	-22%	4.0%	-10	-21	9%	x	-5%
43	Cc1cc(NC(=O)c2c([N+](=O)[O-])cnn2C)no1	16%	-0.6%	29	1	-8%	5.1	-1%
44	O=C(Oc1cccc(N2C(=O)C3C4c5ccccc5C(c5ccccc54)C3C2=O)c1)c1ccco1 (stereo not given)	0%	0.7%	-9	-4	18%	-1.7	-2%
45	COc1ccc(OCCOCCOc2ccc(C)cc2[N+](=O)[O-])cc1	u	6.1%	5	2	6%	3.2	-5%
46	Cc1ccc(NC(=S)N2CCCC(CO)C2)c(C)c1 (stereo not given)	-9%[15.4 µM]	x	2	5	11%	-1.9	3%
47	Cc1ccc(S(=O)(=O)N2CCN(S(=O)(=O)c3ccccc3Br)CC2)cc1	x	3.1%	x	4	x	x	0%
48	CN(CC(=O)NNC(=O)CNC(=O)c1ccccc1Cl)S(=O)(=O)c1ccc(Cl)cc1	-11%[15.4 µM]	1.3%	7	0	x	x	2%
49	Cn1c(=O)oc2cc(S(=O)(=O)Nc3cccc(F)c3)ccc21	-13%	-3.0%	3	-9	4%	-5.1	9%
50	CCN(CC)CCCNCC(=O)Nc1ccc2c(c1)CCC2	-9%	0.2%	4	x	89µM*	-2.4	7%
51	CC(C)OC(=O)Cn1c(=O)oc2ccccc21	-1%[15.4 µM]	-0.4%	-4	-6	22%	-2.3	8%
52	CC(C)(c1ccc(O)c([N+](=O)[O-])c1)c1ccc(O)c([N+](=O)[O-])c1	-2%	x	x	-2	x	x	-22%
53	CC(C)CNC(=S)N1CCC(C(=O)c2ccc3c(c2)OCCO3)CC1	15%	-10%	-3	-8	18%	-0.1	-8%
54	Cc1nn(C)cc1C(C(=O)NC1CCCCC1)N(C(=O)Cc1cccs1)c1ccc(Cl)cc1 (stereo not given)	8%	-1.8%	-6	2	9%	3.6	-8%
55	COC(=O)/C(C#N)=C/c1c(N2CCN(C)CC2)nc2ccccn2c1=O	-3%[15.4 µM]	-2.0%	-15	-13	16%	-7.9	-4%
56	CCc1ccc(-n2cnc3cc(C(=O)NCC(OC)OC)ccc32)cc1	8%	-7.7%	-16	4	10%	-0.7	1%

An excerpt of these results, with each value named:
40) Cc1ccc(-c2nnc(SCC(=O)n3c4c(c5ccccc53)CCCC4)o2)cc1
  gsp ag = x | ClpP mod = x | TRPV1 PAM = 1 | CtBP-E1A blk = x | Sfp inh = -3% | Menin MLL FP FL = 6.4 | gsp antag = x

41) CCOC(=O)Nc1ccc2c(CN3C(=O)NC(CC)(CC)C3=O)cc(=O)oc2c1
  gsp ag = u | ClpP mod = 37% | TRPV1 PAM = 2 | CtBP-E1A blk = -3 | Sfp inh = 14% | Menin MLL FP FL = 4.6 | gsp antag = -15%

42) CCCNc1c(NS(=O)(=O)c2ccc(C)c(C)c2)c(=O)oc2ccccc12
  gsp ag = -22% | ClpP mod = 4.0% | TRPV1 PAM = -10 | CtBP-E1A blk = -21 | Sfp inh = 9% | Menin MLL FP FL = x | gsp antag = -5%

43) Cc1cc(NC(=O)c2c([N+](=O)[O-])cnn2C)no1
  gsp ag = 16% | ClpP mod = -0.6% | TRPV1 PAM = 29 | CtBP-E1A blk = 1 | Sfp inh = -8% | Menin MLL FP FL = 5.1 | gsp antag = -1%
